gsp antagonist = qHTS for Antagonists of gsp, the Etiologic Mutation Responsible for Fibrous Dysplasia/McCune-Albright Syndrome: qHTS. gsp-mutant cells, cAMP HTRF, 30 min; control for the full effect not named in the record. AID 624288, 2012. 340,000 tested, 0.4% active. Potency, µM (titrated, usually from 76.9 µM), inactives show top-dose activity change, negative = inhibition, hits mostly inhibitors; active = falling curve of any shape with a large fitted effect; inconclusive = falling curve, mostly with a smaller effect; inactive = flat or rising curve; cell line not stated here;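 further: intracellular cAMP measured with PDE inhibitor Ro 20-1724 present during compound exposure; potency means the concentration at half of the fitted maximal effect; on the % scale 0 is the no-effect control and ±100 the full control effect; nearly all actives have a fitted effect of over 65% in size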
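HTRF cAMP measurement after 30 min RT detection following 30 min, 37C compound treatment alongside […] (added as 300 uM solution) in G418-selected cells seeded at 2000/well and grown 16–24 h.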
ClpP mod = qHTS Assay for Activators of ClpP; ATP-dependent Clp protease proteolytic subunit (Bacillus subtilis (strain 168)), P80244; purified B. subtilis ClpP, FRET peptide cleavage, 20 min; Potency, µM (doses to about 57.5 µM), for the others: top-dose activity change, negative = active; 340,000 tested, 1.9% active; AID 651965, 2013; active = well fitted falling curve with a large enough effect; inconclusive = small, poorly fitted or top-dose-only effect; inactive = no such curve, though single readings can be large or run the other way; further: potency means the concentration at half of the fitted maximal effect; the source files actives as falling curves though it sought activators and does not explain the sign; nearly all actives have a fitted effect of over 65% in size; many hits overshoot -100%
Target sequence (P80244 whole entry, looked up): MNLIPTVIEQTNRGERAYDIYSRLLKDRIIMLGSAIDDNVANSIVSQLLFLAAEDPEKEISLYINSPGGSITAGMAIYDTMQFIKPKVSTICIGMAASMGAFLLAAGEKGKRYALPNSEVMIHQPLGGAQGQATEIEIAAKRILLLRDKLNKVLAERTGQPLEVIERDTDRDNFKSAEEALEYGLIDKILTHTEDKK
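Buffer: 100 mM Tris/HCl pH8, 100 mM KCl, 0.05% low protease BSA, 2.5% glycerol, 0.01% Tween-20. ClpP 10 microg/mL final; 20 min RT; delta FRET normalized to ADEP and DMSO controls.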
CtBP-E1A blk = qHTS Assay for Inhibitors of the CtBP/E1A Interaction; activity change, % (concentration not given with the values); AlphaScreen GST-E1A/His-CtBP binding, 1536-well; active compounds read low; control for the full effect not named in the record; 340,000 tested, 0.49% active; AID 651724, 2012; in the data active means activity change below about -65%; inconclusive means about -30% to -65%; inactive means above about -30%; further: on the % scale 0 is the no-effect control and ±100 the full control effect
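AlphaScreen with 125 nM GST-E1A and 125 nM His-CtBP (5X stocks) in Tris pH 8.0, 300 mM NaCl, BSA, Tween 20, TCEP. Compounds preincubated 2 h at 37 deg C, then glutathione donor/nickel acceptor beads added for 1 h at 37 deg C in dark.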
gsp ag = qHTS for Agonist of gsp, the Etiologic Mutation Responsible for Fibrous Dysplasia/McCune-Albright Syndrome: qHTS; 340,000 tested, 0.13% active; gsp mutant cells, cAMP HTRF, 30 min; control for the full effect not named in the record; AID 624287, 2012; Potency, µM (series often up to 76.9 µM), for inactives: at the top dose activation (cAMP increase), usual class: activators; active = well fitted activation curve with a large enough effect; inconclusive = small, poorly fitted or top-dose-only effect, or another doubt; inactive = no such curve, though single readings can be large or run the other way; cell line not stated here;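 further: phosphodiesterase inhibitor Ro 20-1724 added with compounds to block cAMP breakdown; potency means the concentration at half of the fitted maximal effect; nearly all actives have a fitted effect of over 60% in size; about a fifth of the inactives were tested at one dose only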
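Cells stably selected in G418 were plated at 2000/well, grown 16-24 hr, then given compounds in DMSO with the PDE inhibitor […] (300 uM solution added) for 30 min at 37C; cAMP was read by HTRF.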
TRPV1 potentiator = HTS Assay for Compounds that Act as Potentiators of the Vanilloid Receptor 1; TRPV1-expressing cells, Fluo-8 calcium influx, capsaicin EC20 potentiation; host cell line not named in the record; control for the full effect not named in the record; potentiation, % at 8.33 µM; AID 540277, 2011; 320,000 tested, 0.02% active; Transient receptor potential cation channel subfamily V member 1 (Homo sapiens), Q8NER1; active means potentiation above 80%; inconclusive means 30% to 80%; inactive means below 30%; further: 0% is about no effect
Target sequence (Q8NER1 whole entry, looked up): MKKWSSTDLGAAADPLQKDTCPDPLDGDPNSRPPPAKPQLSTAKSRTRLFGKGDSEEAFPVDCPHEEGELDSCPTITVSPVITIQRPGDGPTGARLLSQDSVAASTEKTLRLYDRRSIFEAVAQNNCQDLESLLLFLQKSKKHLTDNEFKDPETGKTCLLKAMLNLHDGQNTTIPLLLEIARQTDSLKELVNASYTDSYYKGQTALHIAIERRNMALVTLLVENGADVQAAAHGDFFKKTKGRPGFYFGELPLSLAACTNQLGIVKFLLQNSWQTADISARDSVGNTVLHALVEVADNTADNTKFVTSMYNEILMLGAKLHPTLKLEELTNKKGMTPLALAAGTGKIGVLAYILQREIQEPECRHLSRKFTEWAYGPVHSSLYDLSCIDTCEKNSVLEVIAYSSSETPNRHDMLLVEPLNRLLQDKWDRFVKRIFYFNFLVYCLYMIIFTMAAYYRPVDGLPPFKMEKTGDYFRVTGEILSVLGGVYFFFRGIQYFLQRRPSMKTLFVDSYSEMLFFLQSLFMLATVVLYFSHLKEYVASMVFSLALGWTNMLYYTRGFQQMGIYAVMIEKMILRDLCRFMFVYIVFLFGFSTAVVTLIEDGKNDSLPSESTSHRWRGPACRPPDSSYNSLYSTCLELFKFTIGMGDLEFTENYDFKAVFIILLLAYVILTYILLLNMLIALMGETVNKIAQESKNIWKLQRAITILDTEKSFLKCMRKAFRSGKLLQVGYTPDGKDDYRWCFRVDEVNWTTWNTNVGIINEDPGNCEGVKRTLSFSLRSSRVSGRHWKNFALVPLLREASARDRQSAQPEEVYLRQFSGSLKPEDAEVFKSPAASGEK
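Fluo-8 calcium influx in TRPV1-expressing cells, kinetic read (ex 480/em 520 nm). Compound added and read 3 min for agonist activity, followed by capsaicin at EC20 final and 2 min further read for enhancement.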
Sfp inh = qHTS Assay for Inhibitors of Bacillus subtilis Sfp phosphopantetheinyl transferase (PPTase); Biochemical Sfp PPTase activity, qHTS; 310,000 tested, 3.5% active; 4'-phosphopantetheinyl transferase ffp (Bacillus subtilis), Q9F4F7; Potency, µM, without a hit: max response, negative = inhibition, most hits filed as inhibitors; active means well fitted inhibition curve with a large enough effect; inconclusive means small, poorly fitted or top-dose-only effect, or another doubt; inactive means no such curve, though single readings can be large or run the other way;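 further: the enzyme is Sfp with the accession as filed and its product quenches rhodamine fluorescence; potency means the concentration at half of the fitted maximal effect; 0% = enzyme reaction without inhibitor and -100% = no enzyme wells; top concentration of the series not given in the record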
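With Hepes-Na pH 7.6 buffer containing 10 mM MgCl2, Sfp (15 nM) modified BHQ-2-YbbR (12.5 uM) using rhodamine-CoA (5 uM). Two reads 30 minutes apart at 525/598 nm yielded each well's rate.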
Menin MLL FP FL = qHTS Assay for Inhibitors Targeting the Menin-MLL Interaction in MLL Related Leukemias: Competition With Fluorescein Labeled MLL-derived Peptide. Fluorescence polarization, fluorescein-MLL peptide displacement from menin. 290,000 tested, under 10 active. FP activity change, % at 61.4 µM; inconclusive = falling polarisation curve, or a change in total fluorescence; inactive = total fluorescence flat and polarisation flat or rising; no compound was filed as active; the % refers to the polarisation; negative = inhibition;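 further: % of control where 0% means no effect; inhibitors lower the polarisation; unlabelled MLL peptide was the positive control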
The depositor's hits bear a star; ? = inconclusive; · = no result given; & = joins results of further samples; [ ] = another dose, or the depositor's remark.

SMILES	gsp antagonist	ClpP mod	CtBP-E1A blk	gsp ag	TRPV1 potentiator	Sfp inh	Menin MLL FP FL
C=CCn1c(SCC(=O)N2CCc3ccccc3C2)nc2ccccc2c1=O	-5%	0.3%	6	2%	-9	-14%	4.2
O=C(NCCCN1CCCC1=O)c1cc(=O)c2ccccc2o1	1%	-0.2%	0	23%	14	9%	2.3
Cc1cccc2c(CC(=O)Nc3ccccc3)noc12	6%	0.1%	13	2%	20	11%	1.2
CCCOc1ccc(-c2nnc(-c3cccs3)o2)cc1	1%	10µM*	4	23%	-9	-1%	-2.3
CCOc1cc(C2NC(=O)CCC2[N+](=O)[O-])cc(Br)c1OC (configuration not stated)	5%	0.9%	·	-26%	3	10%	12
O=C(CCCN1C(=O)/C(=C/c2ccccc2Cl)SC1=S)N1CCCC1	-21%	2.8%	·	0%	-3	?	3.4
CC1(C)CC(NC(=O)C2CCCCC2C(=O)O)CC(C)(C)N1 (configuration not stated)	9%	-6.3%	7	-11%	-2	18%	0.7
O=C(COC(=O)c1ccc2c(c1)OCO2)Nc1ccccc1OC(F)F	14%	-14%	10	6%	·	·	·
O=C(NC1(C(=O)O)CCCC1)c1ccccc1	9%	·	8	?	·	·	·
C/C(=N\Nc1nc2ccccc2[nH]1)c1ccc([N+](=O)[O-])cc1	-19%	·	0	-6%[15.4 µM]	-10	-24%	5.1
COc1ccc(C(CNC(=O)c2ccc(-c3cccc(C(F)(F)F)c3)o2)N2CCOCC2)cc1 (configuration not stated)	-17%	-11%	-20	-36%[inhibitor]	-19	·	·
Cc1ccc(C)c2nc(SCC(=O)NCc3cccs3)c(C#N)cc12	-2%	-0.9%	12	15%	1	?	4.6
O=C(CCN1C(=O)C2CC=CCC2C1=O)Nc1ccc(S(=O)(=O)N2CCCCC2)cc1 (configuration not stated)	8%	-0.7%	14	1%	-35	·	·
OC(CNCC1COc2ccccc2O1)COc1ccc(Cl)cc1 (configuration not stated)	1%	3.1%	-2	19%	4	-9%	-1.5
COc1ccc(NC(=O)c2ccc(-c3csc(C)n3)cc2)cc1	-3%	·	5	5%	1	7%	1.3
COc1ccc(CN(Cc2nc3ccccc3c(=O)[nH]2)C(=O)C(C)(C)C)cc1	-4%	-0.2%	5	-7%	-1	7%	-0.7
CC(C)(C)NC(=O)COC(=O)c1nsc(Cl)c1Cl	-9%	0.6%	5	-75%[inhibitor]	24	6%	1.2
Cc1noc(C)c1S(=O)(=O)Nc1ccc2c(c1)C(=O)N([C@H](C)CO)C[C@H](C)[C@@H](CN(C)C(=O)CCCN(C)C)OCCCC[C@@H](C)O2	·	-6.1%	-2	-58%[inhibitor]	·	·	·
CCN(CC)S(=O)(=O)N1CCN(S(=O)(=O)N2CCOCC2)CC1	6%	·	9	-13%	2	22%	-2.0
O=C(CCc1nnc2ccc(NCc3ccco3)nn12)N1CCN(c2ccccc2)CC1	-1%	-2.4%	-21	?	8	3%	·
COCCN1C=C2C(=O)C(C)(OC(=O)c3cccs3)C(=O)C=C2C=C1CCCC(=O)OC (configuration not stated)	5%	-5.4%	·	-39%[inhibitor]	?	6%&6%	-13[11.7 µM]
CCCCOc1ccc(CSCCN)cc1Cl	12%	-2.1%	-12	-23%	19	-9%	-0.1
CC(C)CCNC(=O)C(c1ccco1)N(Cc1ccc(F)cc1)C(=O)c1snc(C(N)=O)c1N (configuration not stated)	-19%	-18%	0	3%	-2	-20%	1.3
Cc1ccc(-n2nnc(-c3cnc4ccccc4c3)n2)cc1	3%	0.4%	3	·	6	-4%	0.2
Cc1ccccc1NC(=O)CSc1nc(N)c(C#N)cc1C#N	10%	?	-13	-8%	-12	16%	10.0
CCOC(=O)C1=C(N)n2c(s/c(=C\c3cccnc3)c2=O)=C(C(=O)OCC)C1c1cccnc1 (configuration not stated)	·	·	·	·	0	14%	2.3
Cc1nn(C)cc1S(=O)(=O)N1CCN(Cc2ccc(F)cc2Cl)CC1	3%	·	2	-2%[15.4 µM]	1	8%	0.3
CCCCN(Cc1ccccc1)C(=O)C1CCN(S(=O)(=O)c2c(C)noc2C)CC1	-6%	-1.9%	0	2%	-1	2%	3.9
CC(=O)Nc1ccc(OCC(O)CN2C(C)(C)CC(O)CC2(C)C)cc1 (configuration not stated)	12%	-2.7%	5	27%	7	15%	-0.9
COc1ccc(CNC(=O)CCNS(=O)(=O)c2ccc(Br)s2)cc1	1%	-4.4%	13	9%[15.4 µM]	8	8%	0.0
Cc1ccc(C(=O)NC(=S)Nc2cccc(-c3nc4ccccc4s3)c2)cc1	-9%	-5.0%	-4	31%[15.4 µM]	-16	-3%	3.6
O=C(NCCNC1CCCCC1)c1ccco1	·	·	-8	-16%[15.4 µM]	10	-5%	-9.2
CCOc1ccc(N2C(=O)C3Sc4[nH]c(=O)sc4C(/C=C/c4ccccc4)C3C2=O)cc1 (configuration not stated)	-25%	0.5%	-21	7%	7	-25%	?
CCC[n+]1c(C)sc2c(OC)ccc(OC)c21	9%	0.4%	-5	9%[15.4 µM]	-5	4µM*	2.1
COc1cc(C(=O)N/N=C(\C)c2ccc3c(c2)OCO3)cc(OC)c1OC	32%[activator]	·	0	-5%[15.4 µM]	10	16%	-0.9
CCOc1ccc(N2C(=O)C3ON(c4ccccc4)C(c4ccco4)C3C2=O)cc1 (configuration not stated)	-11%	-9.4%	-19	-4%[15.4 µM]	2	24%	3.0
C[C@@H]1CN([C@@H](C)CO)C(=O)CCCn2nncc2CO[C@H]1CN(C)S(=O)(=O)c1ccc(Oc2ccccc2)cc1	·	-1.2%	-23	-31%[inhibitor]	·	·	·
CCC1CO/C(=C(\C(=C(Cl)Cl)N2CCOCC2)[N+](=O)[O-])N1 (configuration not stated)	15%	-0.1%	1	-6%	-7	9%	-3.3
CCCn1c(SC(C)C(=O)O)nc2ccccc21 (configuration not stated)	-14%	1.3%	2	4%	3	2%	-0.5
CCCN(CC(=O)Nc1ccccc1C)C(=O)/C=C/c1ccc(OC)c(OC)c1	·	4.5%	-1	-44%[inhibitor]	·	·	·

With a hit mark in Sfp inh, among the entries above:
molecule	CtBP-E1A blk	gsp ag	Sfp inh	Menin MLL FP FL
CCC[n+]1c(C)sc2c(OC)ccc(OC)c21	-5	9%[15.4 µM]	4µM*	2.1

Additional results:
SMILES	gsp antagonist	ClpP mod	CtBP-E1A blk	gsp ag	TRPV1 potentiator	Sfp inh	Menin MLL FP FL
COc1ccccc1NC(=O)COC(=O)C12CC3CC(CC(Cl)(C3)C1)C2	-7%	·	16	0%	-6	-10%	-0.5
Cc1nnc(-c2ccc(N3CCCCCC3)c([N+](=O)[O-])c2)o1	-5%	-1.7%	·	-1%	-13	8%	0.8
CSC1=C(C#N)C(CC(C)C)C(C(C)=O)=C(C)N1 (configuration not stated)	-7%	1.1%	2	21%	-19	9%	0.8
Cc1cccc(N2CCN(C(=O)COc3ccc4c(c3)CCC4)CC2)c1C	-7%	-0.8%	-4	2%	13	-11%	-0.2
Cn1c(N)c(C(=O)CSc2nc3ccccc3n2-c2ccccc2)c(=O)n(C)c1=O	-4%[15.4 µM]	-8.0%	-5	?	11	5%	2.2
CC(C)(C)NC(=O)NC(=O)COC(=O)c1nc(-c2ccccc2)n(-c2cccc(C(F)(F)F)c2)n1	?	3.0%	-8	-5%	-4	4%	8.0
COc1cccc(OCc2nnc(SCc3cc(=O)[nH]c4ccccc34)o2)c1	-17%	·	·	23%[15.4 µM]	2	-13%	8.0
Cc1onc(NC(=O)NC(=O)c2c(Cl)cccc2Cl)c1Br	-2%	0.2%	2	?	-30	-5%	·
CC1(c2ccc(Cl)cc2)NC(=O)N(CC(=O)Nc2ccc(N3CCCCC3)cc2)C1=O (configuration not stated)	4%	-1.1%	-13	0%[15.4 µM]	-3	·	·
O=C(CC1C(=O)NCCN1C/C=C/c1ccccc1)NCCCC1CCCC1 (configuration not stated)	-2%	·	-9	-3%	-7	1%	-0.2
COc1cccc(-n2c(=S)sc3c(=O)n(-c4ccccc4OC)c(SCC4OCCO4)nc32)c1	-10%	·	3	?	22	-1%	-2.3
CC(c1nnc(SCn2nnc3ccccc3c2=O)n1-c1ccc(Cl)cc1)N(C)C (configuration not stated)	-5%	-1.4%	-7	7%	-10	13%	-0.5
COc1ccc([C@@H]2CC=C(C(=O)O)[C@H](c3cccc(Cl)c3)N2S(=O)(=O)c2ccc(C)cc2)cc1OC	-16%	-0.8%	·	7%	26	·	·
COC(=O)N[C@H](CC(C)=O)c1cccc(C(F)(F)F)c1	-6%	-1.4%	1	-15%	11	8%	-1.5
COc1ccc(C)cc1S(=O)(=O)N1CCC2(CC1)OCCN2S(=O)(=O)c1cccs1	-6%	-2.1%	-3	-4%[15.4 µM]	-7	·	·
O=C(c1ccccc1)c1cnc(-c2ccc(Cl)cc2)s1	15%	0.2%	2	-28%	·	3%	7.8
COc1ccc(NC(=O)c2cnn(-c3ccccc3)c2C)cc1OC	8%	-0.6%	1	-17%[15.4 µM]	-25	12%	-0.3
N#CCN1C(=O)NC2(CCCc3sccc32)C1=O (configuration not stated)	5%	·	-4	-19%	-1	2%	-5.3
CN(c1ccc(C(=O)NCCc2ccccc2)cc1)S(C)(=O)=O	-1%	-0.4%	7	-1%	-14	17%	-0.1
O=C(NC1CCCCC1)NC1CC2CCC(C1)N2Cc1nnnn1Cc1ccc2c(c1)OCO2 (configuration not stated)	-6%	0.0%	-1	0%	9	6%	1.5
O=C(Nc1ccon1)c1cccc(Cl)c1	8%	-0.8%	7	-39%[inhibitor]	-2	20%	0.7

Source: PubChem BioAssay (National Center for Advancing Translational Sciences (NCATS))
